HPGD inh: inhibitors of human 15-hydroxyprostaglandin dehydrogenase (HPGD) | P15428 | purified HPGD, NADH fluorescence kinetic, PGE2 substrate | Potency, µM, for inactives: at the top dose activity change, negative = inhibition, usual class: inhibitors | 150,000 tested, 4.3% active | AID 894; active = well fitted inhibition curve with a large enough effect (not every such curve was filed as active); inconclusive = small, poorly fitted or top-dose-only effect, or another doubt; inactive = no such curve, though single readings can be large or run the other way;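 further: top concentration of the series not given in the record; plate controls included wells without enzyme; inactives centre near -10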
Target sequence (P15428 whole entry, looked up): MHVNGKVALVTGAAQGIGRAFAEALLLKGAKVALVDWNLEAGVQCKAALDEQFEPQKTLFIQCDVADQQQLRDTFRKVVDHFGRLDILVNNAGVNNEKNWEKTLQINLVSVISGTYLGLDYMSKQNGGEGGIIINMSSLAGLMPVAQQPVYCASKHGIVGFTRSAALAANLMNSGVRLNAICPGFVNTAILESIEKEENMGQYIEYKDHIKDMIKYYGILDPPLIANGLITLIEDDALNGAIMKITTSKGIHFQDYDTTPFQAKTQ
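20 nM HPGD preincubated 15 min at room temperature with compound in 50 mM Tris-HCl pH 8, 0.01% Tween 20. Started with 1 mM NAD+ and 30 uM prostaglandin E2; NADH fluorescence (360/450 nm) read 5 times over 30-s intervals, last minus first.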
* hit, by the source's call; ? = inconclusive; & = joins results of further samples. On the % scale 0 is the no-effect control and ±100 the full control effect; potency means the concentration at half of the fitted maximal effect.

SMILES | HPGD inh
O=C(c1cccc(F)c1)N1CCC2(CCN(Cc3ccncc3)CC2)CC1 | -3.1%
C=CCNCC(=O)NN=C(c1ccccc1)c1ccccc1 | -9.8%
COc1ccc2cc(C3(C)NC(=O)NC3=O)ccc2c1 (centres undefined) | -5.4%
CCN(CC)CCOC(=O)c1ccc(NC(=O)/C=C/c2cccs2)cc1 | -5.2%
S=C(c1ccccc1)N1CCN(C(=S)c2ccccc2)CC1 | -2.4%
C#CCn1cc(/C=N/Nc2nc3ccccc3[nH]2)c2ccccc21 | ?
Cc1cc(C(=O)OCC(=O)Nc2ccc(S(=O)(=O)N3CCOCC3)cc2)c(C)o1 | -12.3%
COc1ccc(S(=O)(=O)N(C)CC(=O)Nc2ccccc2C(F)(F)F)cc1OC | 2.1%
Cc1ccccc1Nc1nc(N)nc(CSCc2c(C)noc2C)n1 | -17.3%
CCCCCCCCCCOC(=O)c1csc2nnsc12 | -17.8%
CC(C)OCCCNC(=O)CCSc1ccc(Cl)cc1 | -11.8%
CC1(C)Cc2c(sc3c2C2=NCCN2C=N3)CO1 | -19.0%
CCOC(=O)C1CCN(Cc2oc(CO)cc(=O)c2O)CC1 | -24.8%
O=C(NCCO)/C(=C\c1cccs1)NC(=O)c1cccs1 | -23.1%
COc1cc(NC(=O)c2ccc(S(=O)(=O)N(C)C)cc2)cc(OC)c1OC | -0.7%
O=S(=O)(Nc1ccc2c(c1)OCCO2)c1ccc(Br)s1 | -27.0%
CCOC(=O)C1=NNC2(c3ccc(Cl)cc3)C(=O)N(c3cc(C)cc(C)c3)C(=O)C12 (centres undefined) | -14.3%
CC(C)SC(=N)N | 5.5%
Cc1cc(C)n2c(SCC(=O)N(C)C3CCS(=O)(=O)C3)nnc2n1 (centres undefined) | -10.9%
Cc1cccc(NC(=O)CCC(=O)N/N=C/c2ccncc2)c1 | -7.7%

Structures from the list above containing fluorine:
SMILES | HPGD inh
O=C(c1cccc(F)c1)N1CCC2(CCN(Cc3ccncc3)CC2)CC1 | -3.1%
COc1ccc(S(=O)(=O)N(C)CC(=O)Nc2ccccc2C(F)(F)F)cc1OC | 2.1%

Taken from above:
CC(C)SC(=N)N | HPGD inh = 5.5%
C=CCNCC(=O)NN=C(c1ccccc1)c1ccccc1 | HPGD inh = -9.8%
CCN(CC)CCOC(=O)c1ccc(NC(=O)/C=C/c2cccs2)cc1 | HPGD inh = -5.2%
S=C(c1ccccc1)N1CCN(C(=S)c2ccccc2)CC1 | HPGD inh = -2.4%
Cc1cccc(NC(=O)CCC(=O)N/N=C/c2ccncc2)c1 | HPGD inh = -7.7%
COc1ccc(S(=O)(=O)N(C)CC(=O)Nc2ccccc2C(F)(F)F)cc1OC | HPGD inh = 2.1%
CC(C)OCCCNC(=O)CCSc1ccc(Cl)cc1 | HPGD inh = -11.8%

Other compounds.
SMILES | HPGD inh
COc1ccc(Oc2nc(C)cc(C)c2S(C)(=O)=O)cc1 | -5.9%
CCOCCCNC(=S)NCCCNc1nc2cc3c(cc2cc1C#N)OCO3 | ?
CCn1c(COc2cccc(C)c2C)nnc1SCC(=O)N1CCN(c2ccc(OC)cc2)CC1 | -6.8%
COc1ccc(Cl)cc1-c1nc(N)nc(NC2CCCCC2)n1 | -21.6%
COc1ccc(N2CCn3c2nc2c3c(=O)n(CCN3CCOCC3)c(=O)n2C)cc1 | -13.1%
C=CCN(CC=C)S(=O)(=O)c1ccc(F)cc1 | -0.6%
CCn1c(NC(=O)C2CCCCC2)nc2ccccc21 | -14.3%
CCOC(=O)c1c(NC(=O)c2ccco2)n(C2CCCCC2)c2nc3ccccc3nc12 | ?
CCOC(=O)C(CC)(CC)C(=O)/C=C/c1ccc(Br)cc1 | -12.3%
CC(=O)Nc1c(-c2ccccc2)nc2ncccn12 | ?
N#CCCN(Cc1cccnc1)C(=O)Nc1ccc(Cl)c(Cl)c1 | -2.6%
O=C(NCc1ccco1)C(=O)NCC1OCCN1S(=O)(=O)c1ccc(Cl)cc1 (centres undefined) | -9.8%
Cc1ccc(Cl)c(OC(=O)c2nn(C(C)C)c(=O)c3ccccc23)c1 | -21.9%
OC[C@H]1O[C@@H](n2cnc3c(NCc4ccco4)ncnc32)[C@H](O)[C@@H]1O | -5.9%&1.3%
COC(=O)c1nc2n(n1)C(c1ccc(OC)c(OC)c1OC)C1=C(CCCC1=O)N2 (centres undefined) | -17.5%
CC(CCc1ccccc1)NC(=O)C1CCN(C(=O)c2sccc2-n2cccc2)CC1 (centres undefined) | -9.1%
CCOC(=O)N1CCN(C2=Nc3cccc4cccc2c34)CC1 | -8.1%
CC1(C)OC(=O)C(C(c2ccccc2)C(C#N)C(N)=O)=C(O)O1 (centres undefined) | -7.1%
O=C(Cn1cc2c(n1)CCCC2)NCCc1ccccc1 | -13.4%
Cc1ccc(-c2noc(CSc3nnc(-c4ccncc4)n3-c3ccc(F)cc3)n2)cc1 | -2.0%
Cc1ccc(NC(=O)CCn2cccc2)cc1F | -9.5%
CCS(=O)(=O)N1CCN(C(=O)COc2ccc(-c3ccccc3)cc2)CC1 | -3.9%
COc1cccc(C(=O)NC(=S)Nc2ccc(N3CCCC3)cc2)c1 | -21.9%
CC1OC(Oc2ccc3ccc(=O)oc3c2-c2c(O)ccc3cc(Oc4ccc5ccc(=O)oc5c4)c(=O)oc23)C(O)C(O)C1O (centres undefined) | -22.6%
O=C(CN1C2=NCCN2c2ccccc21)c1ccc(Br)s1 | -12.8%
CSCC[C@@H](C(=O)NCc1cccs1)N1Cc2ccccc2C1=O | -8.2%
C#CC(=O)N(c1cccc(OC)c1)C(C(=O)NC1CCCC1)c1cccs1 (centres undefined) | ?
COc1ccccc1OCC(=O)N/N=C1\CCc2ccccc21 | -6.0%
CCOC(=O)c1nnn(-c2nonc2N)c1CNc1ccccc1 | 3.1%
O=C(Cc1ccccc1)NCCc1ccc(Cl)cc1Cl | ?
COc1cccc(/C=C2\N=C(c3c(-c4ccccc4)noc3C)OC2=O)c1 | -12.2%
Cc1ccc(OCC(O)CNS(=O)(=O)c2ccccc2C(=O)O)cc1 (centres undefined) | -13.7%
COc1ccc(/C=N/NC(=O)c2ccoc2C)cc1OC | -12.9%
O=C(COc1ccccc1Cl)NNC(=O)C1CCCO1 (centres undefined) | -10.8%
Cc1c(/C=C/C(=O)c2ccccc2)cnn1C | ?
N#Cc1cccc(NC(=O)N2CCC3(CC2)CCN(C(=O)c2cnccn2)CC3)c1 | -0.4%
O=C(c1csnn1)N1CCC2(CCCN(Cc3cc(C(F)(F)F)cc(C(F)(F)F)c3)C2)CC1 | -4.4%
Cc1cc(C)nc(Nc2n[nH]c(COc3ccc(Cl)cc3)n2)n1 | -11.6%
CCOC(=O)CN(Cc1sccc1C)C(=O)Nc1cccc(OC)c1 | -1.4%
Cc1cc(=O)n2[nH]c(-c3ccc(F)cc3)cc2n1 | ?
CC1(C)C(C#N)=C(N)OC2=C1C(=O)CCC2 | -8.5%
CCC(C)NC(=O)NC(=O)N(C1CCCCC1)S(C)(=O)=O (centres undefined) | -12.3%
CCOC(=O)C(N)CSC1CC(=O)N(c2ccc(C(=O)OC)cc2)C1=O (centres undefined) | -9.7%
Cc1ccc(C(=O)NCC(=O)OCc2csc(-c3ccccc3)n2)cc1 | -25.2%
Cc1nn(Cc2ccc(Cl)cc2Cl)c(C)c1NC(=O)Cn1nc([N+](=O)[O-])c(Cl)c1C | -9.0%
CCOC(=O)Cn1c(=NC(=O)CN2C(=O)CCC2=O)sc2cc(S(N)(=O)=O)ccc21 | -5.3%
O=C(O)CCSc1nnc(-c2ccncc2)n1-c1ccccc1 | -4.5%
COc1ccc(Oc2ncc3ncc(=O)n(Cc4cccc(OC)c4)c3n2)cc1 | 17.8µM*
CCCn1nc2cc(C(=O)NC3CCc4ccccc43)ccc2c1OCC (centres undefined) | ?
O=C(Nc1nc(-c2ccc(Cl)s2)cs1)c1cccs1 | -24.9%
CC1=C(C(=O)Nc2cccnc2)C(c2cccnc2)n2ncnc2N1 (centres undefined) | -2.2%
COc1ccc(C2Nc3ccccc3C(=O)N2Cc2ccco2)cc1COc1ccc(NC(C)=O)cc1 (centres undefined) | ?
COC(=O)/C=c1/s/c(=C(/C#N)C(=O)N2CCOCC2)n(-c2ccccc2)c1=O | -10.2%
CC1CCc2c(C(=O)OCC(=O)Nc3cccc(S(=O)(=O)N4CCCCCC4)c3)csc2C1 (centres undefined) | -17.9%
COc1ccc(C2C(C#N)=C(N)N(c3sc4c(c3C#N)CCCC4)C3=C2C(=O)CC(C)(C)C3)cc1OC (centres undefined) | -12.3%
O=C(Cn1cc([N+](=O)[O-])cn1)Nc1ccc(Cn2cc(Br)cn2)cc1 | -26.3%
Fc1ccc(CNc2nc3ccccc3n3cnnc23)cc1 | ?
CCCCCCC1CC(CSC(=N)N)OC1=O (centres undefined) | -6.6%
COc1ccccc1NC(=O)c1c(Nc2ccccc2C)sc(C(=O)Nc2cccc(Cl)c2)c1N | -10.5%
Nc1nc(CC(=O)CSc2ccc(Cl)cc2)nc(Nc2ccc(F)cc2)n1 | -7.8%
Other structures:
SMILES | HPGD inh
O=C(CN(Cc1ccc2c(c1)OCO2)C(=O)CNS(=O)(=O)c1ccccc1)NCC1CCCO1 (centres undefined) | -0.8%
NC(=O)c1sc(=S)n(-c2ccc(Br)cc2)c1N | -29.1%
COc1cccc(-c2nnn(CC(C)=O)n2)c1 | -12.7%
CCC1(C)OC(=O)N2CCc3c(C)[nH]c4c(C)ccc(c34)C21C (centres undefined) | -24.3%
COc1ccc(NS(=O)(=O)c2cccc(-c3nnc(-c4ccccc4)o3)c2)cc1 | -25.3%
CS(=O)(=O)N(CC(=O)Nc1ccccc1C(=O)N1CCOCC1)c1ccccc1 | 2.0%
CCOC(=O)N1CCC(N2CC34C=CC(O3)C(C(=O)Nc3ccc(C(C)C)cc3)C4C2=O)CC1 (centres undefined) | -1.9%
Nc1nc(SCC(=O)N2CCc3ccccc3C2)[nH]c(=O)c1-c1ccccc1 | -26.1%
Cc1cc(S(=O)(=O)NCc2ccco2)c(C)s1 | -3.0%
CCOC(=O)N1CCN(C(=O)CCCn2c(=S)[nH]c3ccccc3c2=O)CC1 | -16.6%
CCc1nnc(NC(=O)c2ccc(COc3ccc(C)cc3)o2)s1 | -2.2%
CC1CCCN(CCOCCOc2ccc(Br)cc2Cl)C1 (centres undefined) | -2.4%
CCOc1ccc2[nH]c(=O)c(C(c3nnnn3Cc3ccco3)N3CCC(C)CC3)cc2c1 (centres undefined) | ?
Cc1cccc(Cn2c(Sc3nc(C)cs3)nc3c2c(=O)[nH]c(=O)n3C)c1 | -2.6%
COc1cccc(/C=N\NC(=O)c2cc(OCC(F)(F)F)ccc2OCC(F)(F)F)c1 | ?
CCOc1cc(S(=O)(=O)NCCc2ccccc2C)c(OCC)cc1-n1cnnn1 | ?
COC(=O)C(C)N(C#N)c1nc(NC(C)C)nc(SC)n1 (centres undefined) | -8.4%
C/C(CC(=O)Nc1ccccn1)=N\NC(=O)Cc1cccc2ccccc12 | -7.5%
Cc1ccc2c(Cl)c(C(=O)Nc3cccnc3)sc2c1 | -23.3%
CCN(CC)C(=O)C1CCCN(c2ncnc3c2cnn3-c2cccc(C)c2)C1 (centres undefined) | -18.8%
CCOc1ccc(CCNC(=O)CN(C)S(=O)(=O)c2ccc3c(c2)CCC(=O)N3)cc1OCC | -6.6%
c1ccc(-n2nnnc2SCc2cccc(CSc3nnnn3-c3ccccc3)n2)cc1 | -7.2%
Cc1c(NC(=O)CSc2cccc3cccnc23)c(=O)n(-c2ccccc2)n1C | -28.2%
O=C(/C=C/c1ccccc1)Nc1cc(S(=O)(=O)N2CCOCC2)ccc1N1CCCC1 | ?
CC(C)(C)NC(=O)c1cc(F)c(F)cc1Cl | -11.8%
Oc1csc(Cc2nc(-c3ccc4ccccc4c3)cs2)n1 | -27.4%
C=CCNC(=S)/N=c1\sccn1C | -11.7%
CCOC(=O)C1CCN(CC(=O)Nc2c(C(=O)OC)[nH]c3ccccc23)CC1 | -14.6%
COc1ccc(N(CC(=O)O)S(=O)(=O)c2ccc(OC)c(OC)c2)cc1 | -3.5%
O=c1[nH]cnc2ccccc12 | -5.5%&-4.9%&-2.5%
O=C(Nc1ccc(O)c2c(=O)cc(-c3ccccc3Cl)oc12)c1cccc(Cl)c1 | -10.3%
CN(C)c1ccc(NC2=C([N+](=O)[O-])CS(=O)(=O)C2)cc1 | -23.4%
CCCS(=O)(=O)n1nc(-c2ccc(OC)cc2)cc1N | -4.8%
Cc1ccc(C(=O)/C=C2/NC(=O)CS2)cc1 | ?
CNC(=O)c1ccc2c(c1)nnn2C | -9.8%
CCN(CC)S(=O)(=O)c1ccc(NC(=O)c2ccc(NS(C)(=O)=O)cc2)cc1 | -19.2%
CCC(=O)NC(=S)Nc1ccccc1C(=O)NC1CCCCC1 | -3.2%
COc1ccc2c(CC(=O)Nc3nnc(C4CC4)s3)coc2c1 | -8.4%
O=C(N/N=C/c1ccco1)c1ccccn1 | -15.2%
COc1ccc(/C=N/NC(=O)c2c([N+](=O)[O-])c(C)nn2C)cc1 | -2.2%
C/C=C/C=N/Nc1nc(-c2ccc([N+](=O)[O-])cc2)cs1 | -4.2%
Nc1c2c(nc3sc4c(c13)CCCCC4)CCCCC2 | -3.2%

4 of these compounds, reformatted.
> O=c1[nH]cnc2ccccc12
  HPGD inh = -5.5%&-4.9%&-2.5%

> O=C(Nc1ccc(O)c2c(=O)cc(-c3ccccc3Cl)oc12)c1cccc(Cl)c1
  HPGD inh = -10.3%

> CN(C)c1ccc(NC2=C([N+](=O)[O-])CS(=O)(=O)C2)cc1
  HPGD inh = -23.4%

> CCCS(=O)(=O)n1nc(-c2ccc(OC)cc2)cc1N
  HPGD inh = -4.8%

Some of these compounds in order of their number in HPGD inh, descending.
canonical_smiles	HPGD inh
COc1ccc2cc(C3(C)NC(=O)NC3=O)ccc2c1 (centres undefined)	-5.4%
CN(C)c1ccc(NC2=C([N+](=O)[O-])CS(=O)(=O)C2)cc1	-23.4%
CCOC(=O)C1CCN(Cc2oc(CO)cc(=O)c2O)CC1	-24.8%
Oc1csc(Cc2nc(-c3ccc4ccccc4c3)cs2)n1	-27.4%

Screening results as filed in PubChem BioAssay.

These rows are one share of the data; the hit share may differ from the screen's.
